Source: PubChem (Broad Institute)
Ecoli rRNA inh = selective bacterial rRNA inhibition in E. coli. E. coli WT GFP vs humanized-ribosome RFP mutants, fluorescence, 24 h; stronger effect = lower value; DMSO median 0, no signal -100. GFP signal change (wild-type ribosome), % (concentration not given with the values). AID 720706. 350,000 tested, 1.6% active;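 active = significant combined selectivity score with lowered wild-type GFP, culture density cut under 30%, mutant RFP and density less affected; inactive = any of these conditions unmet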; also: one replicate is shown; some compounds called inactive have numbers as strong as hits
FGF22 binding = binders of recombinant human FGF22 by thermal shift; Q9HCT0; SYPRO orange fluorescence; percent of sucrose octasulfate shift, DMSO zero; calls only at 9.99 µM; 340,000 tested, 1.5% active;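 active = melting point raised past a set limit in the mean and every replicate; three in four hits are not shown here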
Target sequence (Q9HCT0 whole entry, looked up): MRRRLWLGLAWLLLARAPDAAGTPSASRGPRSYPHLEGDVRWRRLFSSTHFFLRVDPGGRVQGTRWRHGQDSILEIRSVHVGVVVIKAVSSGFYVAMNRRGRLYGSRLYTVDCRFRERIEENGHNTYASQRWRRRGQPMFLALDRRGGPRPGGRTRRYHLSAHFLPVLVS
Ecoli rRNA inh OD600 = recorded beside Ecoli rRNA inh, whose call it bears; OD600 change, %; measured here: OD600 growth;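 optical density of the mix in the first replicate; 0 = DMSO median and -100 = no signal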
Ecoli rRNA inh RFP = further read-out of Ecoli rRNA inh, marked with its call; RFP signal change, %; measured here: RFP humanized mutant strains;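 first replicate; 0 = DMSO median and -100 = no signal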
* marks the source's active call; other numbers are inactive results; i = inactive. These rows are one share of the data (hit frequency here may not be typical).

SMILES | Ecoli rRNA inh | Ecoli rRNA inh OD600 | Ecoli rRNA inh RFP | FGF22 binding
O=S(=O)(c1ccccc1)N1CC[C@H]2[C@H](CO)Nc3ccc(C#Cc4ccccc4F)cc3[C@H]21 | -8 | 2 | -1.3 | i
C[C@@H]1CN([C@@H](C)CO)C(=O)c2cc(-c3cccc(C#N)c3)cnc2O[C@@H]1CN(C)C(=O)C1CC1 | 10 | 16 | -1.5 | i
CCCNC(=O)N1[C@H](CO)[C@@H](c2ccccc2)C12CN(C(=O)c1cccnc1)C2 | 2 | 2 | -0.1 | i
COc1ccccc1C(=O)Nc1ccc2c(c1)C(=O)N(C)C[C@H](OC)[C@@H](C)CN[C@@H](C)CO2 | 0 | -1 | 0.7 | i
C[C@@H]1CCCCO[C@@H](CN(C)Cc2ccc(Cl)c(Cl)c2)[C@@H](C)CN([C@@H](C)CO)C(=O)c2cc(NS(=O)(=O)c3ccc(Cl)cc3)ccc2O1 | 5 | 7 | 2.1 | i
O=C(c1ccc2c(c1)OCO2)N1CC[C@@H]2[C@H]1c1cc(C#Cc3ccccc3)ccc1N[C@@H]2CO | -11 | 5 | -0.4 | i
CC(C)[C@H]1COCn2nncc2CC[C@@H](Cc2ccccc2)C(=O)N1 | 1 | 4 | -5.2 | i
COCC(=O)N1CC[C@@H]2[C@H](CO)Nc3ccc(C#Cc4ccc(F)cc4)cc3[C@@H]21 | -10 | -8 | 1.5 | i
NCC[C@H]1CC[C@H](NC(=O)C2CCCCC2)[C@H](CO)O1 | 0 | 6 | 0.1 | i
CC(C)NC(=O)Nc1ccc2c(c1)C(=O)N([C@H](C)CO)C[C@H](C)[C@H](CN(C)C(=O)NC(C)C)OCCCC[C@@H](C)O2 | 10 | 12 | -0.7 | i
C[C@@H]1CN([C@@H](C)CO)C(=O)c2cc(N(C)C)ccc2O[C@@H](C)CCCCO[C@H]1CN(C)C(=O)c1ccccc1 | -3 | -2 | -0.1 | i
C[C@H](CO)N1C[C@H](C)[C@@H](CN(C)Cc2cncnc2)Oc2cc(-c3ccccc3)ccc2S1(=O)=O | -4 | -18 | 0.0 | i
CC1C=NC(S(=O)(=O)N2CC[C@@H]3[C@H]2c2cc(-c4ccccc4F)ccc2N(C)[C@H]3CO)=N1 (stereo partly drawn) | -2 | -20 | 11 | i
CO[C@H](CN(C)Cc1ccc2c(c1)OCO2)[C@@H](C)CN(C(=O)Nc1ccc(F)cc1)[C@H](C)CO | 2 | 2 | -0.8 | i
Cc1noc(C)c1S(=O)(=O)N(C)C[C@H]1Oc2ccc(NC(=O)CCCCCC(=O)Nc3ccccc3N)cc2CC(=O)N([C@H](C)CO)C[C@H]1C | 2 | -11 | -1.3 | i
CN(C)C(=O)c1ccc(-c2cccc(-c3nc(C(=O)NCc4ccccc4)cc4c3[C@H](CCO)N([S@@](=O)C(C)(C)C)C4)c2)cc1 | -6 | -7 | 17 | i
COc1ccc(NC(=O)Nc2cccc3c2O[C@@H](CN(C)C(=O)Nc2ccc(OC)cc2)[C@H](C)CN([C@@H](C)CO)C3=O)cc1 | -6 | 1 | 3.3 | i
C[C@@H]1CN([C@H](C)CO)C(=O)c2cc(NC(=O)Nc3ccc(F)cc3)ccc2O[C@@H](C)CCCCO[C@@H]1CN(C)S(=O)(=O)c1cccs1 | 3 | 3 | -1.3 | i
CO[C@@H]1CN(C)C(=O)c2cc(NC(=O)CC(F)(F)F)ccc2OC[C@@H](C)N(S(=O)(=O)c2cn(C)cn2)C[C@@H]1C | -1 | -4 | -2.8 | i
CN1C(=O)c2cc(NC(=O)C3CCCC3)ccc2OC[C@@H]2O[C@@H](CC(=O)NCc3ccccc3F)CC[C@H]21 | 3 | 5 | -1.3 | i
Cc1ccc(S(=O)(=O)Nc2ccc3c(c2)C(=O)N([C@@H](C)CO)C[C@@H](C)[C@H](CN(C)S(=O)(=O)c2cccs2)O3)cc1 | -5 | -14 | 2.2 | i
CCNC(=O)C[C@H]1CC[C@@H]2[C@@H](COc3ccc(NC(=O)Nc4ccccc4C)cc3C(=O)N2C)O1 | -1 | -3 | 0.4 | i
C[C@H](O)C#Cc1cnc2c(c1)C(=O)N([C@H](C)CO)C[C@@H](C)[C@H](CN(C)CC1CCOCC1)O2 | 1 | 7 | -3.3 | i
CCCNC(=O)N1[C@@H](CO)[C@H](c2ccccc2)C12CN(C(=O)CC1CC1)C2 | 2 | 7 | -1.1 | i

Ordered by the number under Ecoli rRNA inh RFP (rising): 6 from the list above.
molecule	Ecoli rRNA inh	Ecoli rRNA inh OD600	Ecoli rRNA inh RFP	FGF22 binding
C[C@H](O)C#Cc1cnc2c(c1)C(=O)N([C@H](C)CO)C[C@@H](C)[C@H](CN(C)CC1CCOCC1)O2	1	7	-3.3	i
Cc1noc(C)c1S(=O)(=O)N(C)C[C@H]1Oc2ccc(NC(=O)CCCCCC(=O)Nc3ccccc3N)cc2CC(=O)N([C@H](C)CO)C[C@H]1C	2	-11	-1.3	i
CCCNC(=O)N1[C@@H](CO)[C@H](c2ccccc2)C12CN(C(=O)CC1CC1)C2	2	7	-1.1	i
CO[C@H](CN(C)Cc1ccc2c(c1)OCO2)[C@@H](C)CN(C(=O)Nc1ccc(F)cc1)[C@H](C)CO	2	2	-0.8	i
Cc1ccc(S(=O)(=O)Nc2ccc3c(c2)C(=O)N([C@@H](C)CO)C[C@@H](C)[C@H](CN(C)S(=O)(=O)c2cccs2)O3)cc1	-5	-14	2.2	i
CC1C=NC(S(=O)(=O)N2CC[C@@H]3[C@H]2c2cc(-c4ccccc4F)ccc2N(C)[C@H]3CO)=N1 (stereo partly drawn)	-2	-20	11	i

Further compounds follow:
SMILES | Ecoli rRNA inh | Ecoli rRNA inh OD600 | Ecoli rRNA inh RFP | FGF22 binding
C[C@H](CO)N1C[C@H](C)[C@H](CN(C)Cc2ccc3c(c2)OCO3)Oc2ccc(NS(=O)(=O)c3ccccc3)cc2C1=O | 2 | -3 | 1.6 | i
CO[C@H]1CN(C)C(=O)c2cc(NC(=O)C3CC3)ccc2OC[C@@H](C)NC[C@@H]1C | 0 | 9 | -0.3 | i
C[C@H](CO)N1C[C@H](C)[C@@H](CN(C)S(=O)(=O)c2cn(C)cn2)Oc2ccc(NS(C)(=O)=O)cc2CC1=O | 4 | 9 | -1.8 | i
CCCC#Cc1ccc([C@@H]2[C@H](CO)N3CCCCN(CC4CCOCC4)C[C@@H]23)cc1 | 6 | 0 | -2.3 | i
COC(=O)C1=C(C)N(Cc2cccc(C(F)(F)F)c2)C(=NCc2ccc(OC)cc2)NC1c1ccccc1 (stereo not drawn) | -56 | -82 | -18 | i
Cc1ccc(S(=O)(=O)Nc2ccc3c(c2)CC(=O)N([C@H](C)CO)C[C@@H](C)[C@@H](CN(C)C(=O)Nc2c(C)noc2C)O3)cc1 | 0 | 4 | -0.8 | i
COC(=O)C1=C(C)N(C)C(=NCC2CC2)NC1c1ccccc1 (stereo not drawn) | 20 | 29 | 2.4 | i
COc1ccc2c3c([nH]c2c1)[C@H](CO)N(Cc1ccccc1)CC31CCN(S(=O)(=O)c2ccc(C)cc2)CC1 | -2 | -8 | 4.5 | i
C[C@H]1CN([C@@H](C)CO)C(=O)c2cccc(NS(=O)(=O)c3ccccc3)c2O[C@H]1CN(C)Cc1ccc(Cl)c(Cl)c1 | -4 | -9 | 2.0 | i
CCN(C[C@H]1[C@H](c2ccc(-c3ccccc3)cc2)[C@H](CO)N1CC1CC1)C(C)=O | 1 | 5 | 1.9 | i
C[C@@H]1CN([C@@H](C)CO)C(=O)c2cc(NS(=O)(=O)c3cn(C)cn3)ccc2O[C@@H](C)CCCCO[C@@H]1CN(C)Cc1ccc(C(=O)O)cc1 | 5 | 5 | -0.6 | i
C[C@H]1CN([C@@H](C)CO)C(=O)c2cc(NC(=O)Nc3ccc(F)cc3)ccc2O[C@@H]1CN(C)Cc1ccc(Cl)c(Cl)c1 | 1 | 4 | -1.9 | i
COc1ccc(NC(=O)Nc2ccc3c(c2)C(=O)N([C@@H](C)CO)C[C@H](C)[C@@H](CN(C)S(=O)(=O)c2ccccc2)OCCCC[C@@H](C)O3)cc1 | -4 | 0 | -0.6 | i
COc1ccccc1NC(=O)N[C@H]1CC[C@H](CCNS(=O)(=O)c2ccccc2)O[C@H]1CO | -3 | 6 | -4.9 | i
O=C(Nc1cccc(Cl)c1)N[C@H]1CC[C@@H](CCNC(=O)C2CCCCC2)O[C@@H]1CO | -7 | -8 | 2.1 | i
CNC[C@H]1OCCCC[C@H](C)Oc2ccc(NC(=O)NC(C)C)cc2C(=O)N([C@@H](C)CO)C[C@@H]1C | 5 | -1 | -2.1 | i
CN(C)CCCNC(=O)C[C@@H]1C=C[C@H](NS(=O)(=O)c2ccc(F)cc2)[C@H](CO)O1 | 1 | 4 | -1.2 | i
C[C@H](CO)N1C[C@H](C)[C@@H](CN(C)C(=O)C2CCOCC2)Oc2ncc(-c3cccnc3)cc2C1=O | 2 | 14 | -4.0 | i
Cc1ccc(S(=O)(=O)N(C)C[C@@H]2OCCCC[C@H](C)Oc3ccc(NS(=O)(=O)c4ccccc4)cc3C(=O)N([C@@H](C)CO)C[C@@H]2C)cc1 | -1 | 2 | 1.0 | i
COc1ccc(S(=O)(=O)Nc2ccc3c(c2)C(=O)N([C@H](C)CO)C[C@H](C)[C@H](CN(C)Cc2ccncc2)O3)cc1 | 1 | 0 | 2.5 | i
COc1ccc(-n2c(CSc3ccc(Cl)cc3)n[nH]c2=S)cc1 | -52 | -77 | -15 | i
O=C(N[C@H]1CC[C@@H](CCn2cc(C3CC3)nn2)O[C@@H]1CO)c1cccnc1 | -1 | 0 | 1.6 | i
CCCNC(=O)N1CC2(CCN(Cc3cccc(OC)c3)CC2)c2c(n(C)c3cc(OC)ccc23)[C@H]1CO | -5 | -7 | -0.5 | i
C[C@@H]1CN([C@@H](C)CO)C(=O)CCCn2nncc2CO[C@H]1CN(C)C(=O)Nc1ccc2c(c1)OCCO2 | 3 | 4 | -1.2 | i
Cc1noc(C)c1S(=O)(=O)N(C)C[C@@H]1Oc2ccc(NC(=O)NC3CCCCC3)cc2CC(=O)N([C@@H](C)CO)C[C@H]1C | -1 | 5 | -0.6 | i
CCCC(=O)Nc1ccc2c(c1)OC[C@H](C)N(C(=O)CC1CC1)C[C@@H](C)[C@H](OC)CN(C)C2=O | 5 | 4 | -1.2 | i
Cc1cccc(S(=O)(=O)N2CCCCN3[C@H](C2)[C@H](c2ccc(C#C[C@@H](C)O)cc2)[C@@H]3CO)c1 | -2 | -4 | -0.2 | i
O=C(c1cccc(F)c1)N1C[C@H]2[C@@H](c3ccccc31)[C@@H](CO)N2C(=O)c1cccc(F)c1 | -1 | 1 | -2.0 | i
O=C(C[C@@H]1CC[C@H]2NC[C@H](O)COC[C@@H]2O1)NCc1ccc(Oc2ccccc2)cc1 | 2 | -11 | 5.5 | i
CCCC#Cc1cnc2c(c1)C(=O)N([C@H](C)CO)C[C@H](C)[C@@H](CN(C)C(=O)Nc1ccccc1F)O2 | 2 | 2 | 1.6 | i
O=C(Nc1ccc2c(c1)OCO2)N[C@H]1CC[C@H](CC(=O)N2CCN(c3ccccc3)CC2)O[C@H]1CO | 2 | 11 | 1.3 | i
C[C@H](CO)N1C[C@H](C)[C@@H](CN(C)S(=O)(=O)c2ccc(F)cc2)Oc2ccc(NC(=O)Nc3cccc4ccccc34)cc2C1=O | 3 | -2 | 2.5 | i
C[C@@H]1CN([C@H](C)CO)C(=O)c2cc(NC(=O)c3ccncc3)ccc2O[C@@H](C)CCCCO[C@@H]1CN(C)Cc1ccc2c(c1)OCO2 | -3 | -1 | 0.0 | i
COC(=O)C[C@@H]1CC[C@H]2[C@H](COc3ccc(NC(=O)C4CCOCC4)cc3C(=O)N2C)O1 | -11 | 1 | -0.9 | i
C[C@H]1CN([C@@H](C)CO)S(=O)(=O)c2ccc(C#Cc3cccnc3)cc2O[C@H]1CN(C)C(=O)Nc1ccc2c(c1)OCO2 | -9 | -9 | 17 | i
COc1ccc(NC(=O)Nc2ccc3c(c2)C(=O)N([C@@H](C)CO)C[C@@H](C)[C@@H](CN(C)C(=O)Nc2ccc(OC)cc2)OCCCC[C@@H](C)O3)cc1 | -4 | -2 | -1.1 | i
N#C[C@H]1N[C@H](CO)[C@H]1c1ccc(-c2ccccc2F)cc1 | -2 | 3 | -1.7 | i
CC(C)NC(=O)N(C)C[C@H]1Oc2ncc(C#Cc3ccccc3F)cc2C(=O)N([C@H](C)CO)C[C@@H]1C | 3 | 10 | 0.4 | i
COc1ccc2c3c([nH]c2c1)[C@@H](CO)N(CC1CCOCC1)CC31CN(C(=O)c2ccc(F)cc2)C1 | 0 | 1 | 1.4 | i
C[C@H](CO)N1C[C@H](C)[C@@H](CN(C)Cc2cccc(C(F)(F)F)c2)OCc2cn(nn2)CCCC1=O | -1 | -1 | -0.9 | i
CCC(=O)N(C)C[C@@H]1Oc2cc(C#Cc3cccnc3)ccc2S(=O)(=O)N([C@@H](C)CO)C[C@@H]1C | -5 | -7 | -0.3 | i
C[C@@H]1CCCCO[C@H](CN(C)S(C)(=O)=O)[C@@H](C)CN([C@H](C)CO)C(=O)c2cc(NC(=O)CCC(F)(F)F)ccc2O1 | 3 | 6 | -0.6 | i
